Ecoli rRNA inh – inhibits bacterial ribosomal RNA function over humanized ribosomes. E. coli WT GFP vs humanized-ribosome RFP mutants, fluorescence, 24 h; hits give low values; DMSO median 0, no signal -100. GFP signal change (wild-type ribosome), % (concentration not given with the values). 350,000 compounds, 1.6% hits. AID 720706;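 active means significant combined selectivity score with lowered wild-type GFP, culture density cut under 30%, mutant RFP and density less affected; inactive means any of these conditions unmet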; further: one replicate is shown; some compounds called inactive have numbers as strong as hits
AF4-AF9 inh – inhibitors of human MLL-AF4/AF9 interaction. P42568. AlphaScreen, biotin-AF4 peptide binding to FLAG-AF9. inhibition, % at 10 µM. 350,000 compounds, 0.47% hits;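 active means every replicate reaching a set inhibition limit, whatever the replicate mean, cut at about 25% in these data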;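 further: 0% = plate neutral control median and 100% = total signal loss; the record names both 10 and 1 µM as test concentration; the first replicate is given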
Target sequence (P42568 whole entry, looked up): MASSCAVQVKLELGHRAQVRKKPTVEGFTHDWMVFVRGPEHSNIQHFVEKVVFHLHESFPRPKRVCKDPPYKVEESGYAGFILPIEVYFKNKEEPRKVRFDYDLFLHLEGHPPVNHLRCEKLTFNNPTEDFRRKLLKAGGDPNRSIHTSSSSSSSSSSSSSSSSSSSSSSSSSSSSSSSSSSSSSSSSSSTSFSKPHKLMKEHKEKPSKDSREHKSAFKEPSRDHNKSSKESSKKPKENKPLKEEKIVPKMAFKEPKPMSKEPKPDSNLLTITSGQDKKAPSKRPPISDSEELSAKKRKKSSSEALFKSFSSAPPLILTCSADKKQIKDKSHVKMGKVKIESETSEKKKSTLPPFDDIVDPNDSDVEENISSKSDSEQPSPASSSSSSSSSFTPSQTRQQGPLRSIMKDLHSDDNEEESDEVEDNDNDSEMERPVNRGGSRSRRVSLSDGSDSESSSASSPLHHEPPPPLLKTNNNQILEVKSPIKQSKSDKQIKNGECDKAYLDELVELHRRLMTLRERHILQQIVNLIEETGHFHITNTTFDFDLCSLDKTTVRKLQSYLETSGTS
Ecoli rRNA inh OD600 – second read-out of Ecoli rRNA inh, no call of its own (marks repeat the call); OD600 change, %; measured here: OD600 growth;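 optical density of the mix in the first replicate; 0 = DMSO median and -100 = no signal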
Ecoli rRNA inh RFP – also measured in Ecoli rRNA inh; calls as there; RFP signal change, %; measured here: RFP humanized mutant strains;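 first replicate; 0 = DMSO median and -100 = no signal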
Numbers without * were called inactive; & = joins results of further samples. These rows are one share of the data; the hit share may differ from the screen's.

Compound,Ecoli rRNA inh,Ecoli rRNA inh OD600,Ecoli rRNA inh RFP,AF4-AF9 inh
C[C@H]1CN([C@@H](C)CO)C(=O)c2c(c3ccccc3n2C)-c2ccccc2CO[C@@H]1CN(C)Cc1ccc(-c2ccccc2)cc1,3.6,8.5,-1.9,-1.5
COCC(=O)Nc1ccc2c(c1)C(=O)N(C)C[C@@H](OC)[C@H](C)CN(CCc1ccccc1)[C@@H](C)CO2,-5.2,-9.6,-0.6,3.9
Cc1ccc2nc(-c3ccc(Cl)cc3)c(Cc3cccc(F)c3)n2c1,-56.6,-78.6,-15.5,3.9
C[C@@H]1CN([C@@H](C)CO)S(=O)(=O)c2ccc(C#Cc3ccncc3)cc2O[C@H]1CN(C)C(=O)C1CCOCC1,-1.9,-4.6,-0.4,-1.3
Cc1cc(C(=O)Nc2cccc3c2O[C@H](CN(C)C(=O)Nc2ccccc2)[C@H](C)CN([C@@H](C)CO)C3=O)n(C)n1,2.5,1.1,-3.0,-0.6
O=C(C[C@@H]1C[C@@H]2c3cc(NC(=O)CC4CC4)ccc3O[C@@H]2[C@@H](CO)O1)NCc1cc(F)ccc1F,4.3,0.6,1.6,0.7
CNC[C@@H]1Oc2cc(C#CC3(O)CCCC3)ccc2S(=O)(=O)N([C@@H](C)CO)C[C@@H]1C,3.2,4.0,-1.8,0.8
Fc1ccccc1-c1nc(NCC2CC2)nc2ccsc12,-40.1,-66.7,-13.6,-3.0
CCN(C[C@@H]1[C@@H](c2ccc(C3=CCCCC3)cc2)[C@@H](CO)N1C(C)=O)C(C)=O,-1.6,2.2,4.1,-1.5
COCC(=O)N1[C@H](CO)[C@H](c2ccccc2)C12CN(C(=O)c1ccccc1)C2,1.8,18.3,-2.1,0.4
COc1ccc(S(=O)(=O)N2CCC3(CC2)CN(C(=O)CN(C)C)[C@H](CO)c2c3c3ccc(OC)cc3n2C)cc1,-2.6,-20.2,13.9,33.1*
C[C@H](O)C#Cc1ccc2c(c1)O[C@@H](CN(C)C(=O)c1ccccc1)[C@@H](C)CN([C@H](C)CO)S2(=O)=O,0.7,8.1,0.8,-0.9

Whole records, looked up by structure. Values in the order: Ecoli rRNA inh | Ecoli rRNA inh OD600 | Ecoli rRNA inh RFP | AF4-AF9 inh
Cc1ccc2nc(-c3ccc(Cl)cc3)c(Cc3cccc(F)c3)n2c1 is entered as -56.6 | -78.6 | -15.5 | 3.9
COCC(=O)Nc1ccc2c(c1)C(=O)N(C)C[C@@H](OC)[C@H](C)CN(CCc1ccccc1)[C@@H](C)CO2 is entered as -5.2 | -9.6 | -0.6 | 3.9
C[C@H]1CN([C@@H](C)CO)C(=O)c2c(c3ccccc3n2C)-c2ccccc2CO[C@@H]1CN(C)Cc1ccc(-c2ccccc2)cc1 is entered as 3.6 | 8.5 | -1.9 | -1.5
Cc1cc(C(=O)Nc2cccc3c2O[C@H](CN(C)C(=O)Nc2ccccc2)[C@H](C)CN([C@@H](C)CO)C3=O)n(C)n1 is entered as 2.5 | 1.1 | -3.0 | -0.6
COCC(=O)N1[C@H](CO)[C@H](c2ccccc2)C12CN(C(=O)c1ccccc1)C2 is entered as 1.8 | 18.3 | -2.1 | 0.4

More structures follow.
Compound,Ecoli rRNA inh,Ecoli rRNA inh OD600,Ecoli rRNA inh RFP,AF4-AF9 inh
CCOc1ccc(CCN2C(=O)C(=O)N([C@@H](Cc3ccccc3)CN3CCC[C@H]3CN3C(=O)C(=O)NC[C@@H]3Cc3ccccc3)C[C@@H]2CC(C)C)cc1,-4.5,-20.2,13.6,-1.5
CN(C)CC(=O)N[C@@H]1CC[C@@H](CCn2cc(C3CCCC3)nn2)O[C@@H]1CO,4.3,10.2,-2.2,-3.4
C[C@@H]1CN([C@H](C)CO)C(=O)c2cccc(NS(=O)(=O)c3cccs3)c2O[C@@H]1CN(C)Cc1ccc(Oc2ccccc2)cc1,2.1,-2.9,1.7,4.9
COc1ccc(NC(=O)N(C)C[C@H]2Oc3ncc(C#CC(C)C)cc3C(=O)N([C@@H](C)CO)C[C@@H]2C)cc1,2.2,9.3,0.2,-5.9
Cc1noc(C)c1S(=O)(=O)Nc1ccc2c(c1)C(=O)N([C@H](C)CO)C[C@H](C)[C@H](CN(C)C(=O)Nc1ccccc1)OCCCC[C@@H](C)O2,3.3,3.6,-0.1,0.4
O=C(Nc1cccc(F)c1)N1CC(=O)N2[C@H](C1)[C@H](c1ccc(-c3ccccc3)cc1)[C@@H]2CO,-9.2,-48.0,23.2,-2.3
C/C=C/c1cnc2c(c1)C(=O)N([C@@H](C)CO)C[C@H](C)[C@H](CN(C)S(=O)(=O)c1ccc(OC)cc1)O2,4.5,5.3,-4.5,-10.2
Cc1noc(C)c1S(=O)(=O)Nc1ccc2c(c1)CC(=O)N([C@@H](C)CO)C[C@@H](C)[C@H](CN(C)Cc1ccc(C(=O)Nc3ccccc3N)cc1)O2,-4.4,-10.5,-0.8,0.1
CO[C@H]1CN(C)C(=O)c2cc(NC(=O)Nc3ccccc3Cl)ccc2OC[C@H](C)NC[C@H]1C,0.4,-2.3,3.1,1.4
O=C(Cc1ccccc1)N1CC[C@H]2[C@H](CO)Nc3ccc(C#Cc4cccc(F)c4)cc3[C@H]21,-8.5,-15.5,2.8,7.8
CCN(C(=O)COC(=O)/C=C/c1c(C)nn(-c2ccccc2)c1C)c1c(N)n(Cc2ccccc2)c(=O)[nH]c1=O,13.1,22.4,0.2,4.9
C[C@H](CO)N1C[C@H](C)[C@@H](CN(C)C(=O)c2ccccn2)Oc2cc(C#Cc3ccc(F)cc3)ccc2S1(=O)=O,-33.0,-73.3,-1.0,-8.8
C[C@@H]1CN([C@@H](C)CO)C(=O)Cc2cc(NS(=O)(=O)c3ccccc3)ccc2O[C@@H]1CN(C)CC1CCCCC1,0.6,-0.9,0.1,-2.2
Cc1ccccc1-c1ccc(C2[C@H]3CNC[C@@H]2N3C(=O)Nc2ccc(F)cc2)cc1 (some centres not stated),-1.8&-55.9,-16.2&-80.8,-1.4&-12.7,1.1&2.2
C[C@@H]1CN([C@H](C)CO)C(=O)c2cc(NS(=O)(=O)c3ccc(F)cc3)ccc2O[C@@H]1CN(C)C(=O)Nc1ccccc1,-0.8,-0.7,-2.9,-1.1
C[C@@H]1CN([C@@H](C)CO)S(=O)(=O)c2ccc(C3=CCCCC3)cc2O[C@@H]1CN(C)Cc1ccncc1,-32.3,-52.9,26.2,11.4
CO[C@@H]1CN(C)C(=O)c2ccc(NC(=O)C3CC3)cc2OC[C@@H](C)N(C(C)=O)C[C@@H]1C,0.2,5.2,-0.7,-1.9
CC(C)C1C(=O)N(Cc2cn(CCC3OCCO3)nn2)CCS(=O)(=O)N1Cc1ccc(-c2cccc(N(C)C)c2)cc1 (configuration not stated),-3.8,0.3,-2.6,3.7
CC(=O)N(C)C[C@@H]1Oc2ncc(-c3ccc(C)cc3)cc2C(=O)N([C@@H](C)CO)C[C@H]1C,-2.7,-3.6,-3.5,-0.5
CO[C@@H]1CN(C)C(=O)c2cc(NC(=O)c3ccccc3)ccc2OC[C@H](C)NC[C@H]1C,1.9,-1.4,-1.7,-5.2
C[C@@H]1CN([C@H](C)CO)C(=O)c2cc(C#CC3CC3)cnc2O[C@@H]1CN(C)Cc1ccccc1C(=O)O,-1.0,2.9,-1.3,1.0
C[C@H](CO)N1C[C@H](C)[C@@H](CN(C)C)Oc2ccc(NC(=O)CCC(F)(F)F)cc2C1=O,-1.6,-2.5,-0.2,-1.7
CCCNC(=O)C1(C)CCCN(Cc2ccc(C)cc2)C1 (configuration not stated),18.4,14.0,2.4,-4.6
C[C@@H]1CN([C@H](C)CO)C(=O)c2cc(NC(=O)CCCN(C)C)ccc2O[C@@H](C)CCCCO[C@@H]1CN(C)S(=O)(=O)c1ccc(Cl)cc1,-1.9,-10.0,10.3,8.3
O=C(CN1CCCC1c1cccs1)Nc1cc(S(=O)(=O)N2CCCCC2)ccc1Cl (configuration not stated),4.9,2.8,2.1,0.7
C[C@H](CO)N1C[C@H](C)[C@@H](CN(C)C(=O)c2cccnc2)Oc2ncc(C#CCN(C)C)cc2C1=O,0.9,-2.3,-0.2,-6.3
O=C(C[C@H]1CC[C@@H](NC(=O)C2CCC2)[C@H](CO)O1)NC1CCC1,2.8,3.1,-2.3,-2.5
CC(C)c1cn(CC[C@@H]2CC[C@H](NC(=O)C3CCC3)[C@@H](CO)O2)nn1,1.0,7.9,-1.8,-2.3
C[C@H](CO)N1C[C@H](C)[C@H](CN(C)S(=O)(=O)c2cccc(F)c2)Oc2ncc(C#Cc3ccc(F)cc3)cc2C1=O,3.1,12.2,-0.3,-7.8
C[C@H]1CN([C@@H](C)CO)C(=O)c2c(c3ccccc3n2C)-c2ccccc2CO[C@@H]1CN(C)C(=O)Nc1cccc(Cl)c1Cl,1.9,3.1,-2.1,3.5
C[C@H](CO)N1C[C@H](C)[C@@H](CN(C)S(=O)(=O)c2ccc(Cl)cc2)OCCCC[C@H](C)Oc2ccc(NC(=O)Cc3ccccc3)cc2C1=O,3.0,13.6,2.7,3.4
C[C@H](CO)N1C[C@H](C)[C@H](CN(C)S(=O)(=O)c2ccccc2)Oc2c(NC(=O)NC3CCCCC3)cccc2C1=O,-4.3,-1.6,0.4,2.0
CC(C)NC(=O)Nc1ccc2c(c1)C(=O)N([C@@H](C)CO)C[C@H](C)[C@@H](CN(C)C(=O)NC1CCCCC1)OCCCC[C@H](C)O2,-1.0,-4.5,2.1,-1.1
C[C@@H]1CN([C@H](C)CO)C(=O)c2cc(NC(=O)Cc3ccccc3)ccc2O[C@H]1CN(C)Cc1ccc2c(c1)OCO2,0.5,-2.8,-0.5,2.6
C[C@H](CO)N1C[C@H](C)[C@H](CN(C)C(=O)Nc2ccc(F)cc2)Oc2ccc(NC(=O)CCCN(C)C)cc2C1=O,3.4,5.5,2.3,-1.9
CCCCn1nnnc1C(c1ccnc2ccccc12)N1CCN(C/C=C/c2ccccc2)CC1 (configuration not stated),-35.3,-73.8,-3.3,6.4
CCCNC(=O)N1C[C@@H]2[C@H](c3ccccc31)[C@@H](CO)N2C(=O)NC(C)C,1.3,13.8,-1.9,3.1
CO[C@H]1CN(C)C(=O)c2cc(NS(=O)(=O)c3ccc(Cl)cc3)ccc2OC[C@H](C)NC[C@@H]1C,1.1,-0.2,-0.9,-2.9
C[C@@H]1CN([C@H](C)CO)C(=O)Cc2cc(NC(=O)Cc3cn(C)c4ccccc34)ccc2O[C@@H]1CN(C)S(=O)(=O)c1ccc(F)cc1,0.2,-3.4,0.3,-0.1
COc1ccc(NC(=O)N2CC[C@@H]3[C@@H](CO)N(C)c4ccc(Br)cc4[C@@H]32)cc1,-13.7,-52.5,12.5,1.0
O=C(NCC1CCCCC1)[C@@H]1[C@@H](CO)[C@@H]2Cn3c(ccc(-c4ccccc4F)c3=O)[C@H]1N2,-2.5,-4.5,-4.3,-1.2
C[C@H]1CN([C@@H](C)CO)C(=O)c2cccc(NC(=O)NC3CCCCC3)c2O[C@@H]1CN(C)C(=O)Nc1cccc2ccccc12,-3.1,-2.4,1.9,1.5
O=C(c1ccc(F)cc1)N1CC(=O)N2[C@H](C1)[C@@H](c1ccc(-c3ccccc3F)cc1)[C@@H]2CO,-39.8,-67.3,-5.4,0.1
CCN1[C@H](C(=O)NC2CCCCC2)[C@@H](CO)[C@@H]2Cn3c(ccc(-c4cccnc4)c3=O)[C@@H]21,-1.7,-1.6,-3.0,1.1
O=C(NCc1ccc(F)cc1)[C@H]1[C@H](CO)[C@H]2Cn3c(cccc3=O)[C@@H]1N2,0.5,-13.6,4.5,-2.2
COc1ccc2c3c(n(C)c2c1)[C@H](CO)N(CC1CC1)CC31CCN(C(=O)c2ccccc2)CC1,1.8,-7.2,6.3,-0.2
O=C(CN1CCN(CC(=O)Nc2ccc3c(c2)OC2(CCCCC2)O3)CC1)Nc1cccc(F)c1,3.7,2.9,-2.6,-0.9
C[C@H]1CN([C@@H](C)CO)C(=O)c2cccc(NC(=O)Nc3ccccc3)c2O[C@@H]1CN(C)S(=O)(=O)c1cn(C)cn1,0.2,3.4,-1.5,-0.7
O=C(C[C@H]1C[C@@H]2c3cc(NC(=O)Nc4ccccc4)ccc3O[C@@H]2[C@H](CO)O1)NCCN1CCCCC1,2.7,9.8,-0.2,11.1
C[C@@H]1CCCCO[C@@H](CN(C)Cc2ccc(C(=O)O)cc2)[C@@H](C)CN([C@H](C)CO)C(=O)c2cc(NC(=O)NC3CCCCC3)ccc2O1,2.1,4.3,-1.9,0.0
C[C@H]1CCCCO[C@H](CN(C)S(=O)(=O)c2ccccc2)[C@@H](C)CN([C@@H](C)CO)C(=O)c2cc(NC(=O)Nc3ccc(F)cc3)ccc2O1,2.6,5.6,0.1,2.8
C[C@@H]1CN([C@H](C)CO)C(=O)c2ccccc2-c2ccccc2CO[C@H]1CN(C)S(=O)(=O)c1ccsc1,-0.6,-1.1,-2.8,8.2
C[C@@H]1CCCCO[C@@H](CN(C)CC2CCCCC2)[C@@H](C)CN([C@H](C)CO)C(=O)c2cc(NC(=O)c3ccncc3)ccc2O1,-4.3,-18.6,-1.9,-7.7

Screens from PubChem BioAssay.
